Calb biofilm kill: clotrimazole potentiators killing C. albicans biofilm, primary screen, 4-compound mixtures. C. albicans biofilm persisters + clotrimazole, fluorescence viability; primary screen in compound mixtures of four per well. AID 1242, 2008. actives 0.02% (n = 120,000). inhibition, % at 7.6 µM;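 active means inhibition above 30.3% in the primary screen of four-compound pools, then above 30% when the compound was retested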;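 further: compounds exposed to preformed 24 h biofilms for 48 h; the number belongs to the whole pool; some results filed as inactive read as strong as hits; inactives centre near 12; 0% = biofilm with clotrimazole alone and 100% = kill control; retested singly at about 60 µM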
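Assay system: C. albicans biofilms / Medium: RPMI/MOPS medium, pH 7.0 / Schedule: biofilm formation 24 h, compound exposure 48 h, 37 °C / Measured by: Alamar Blue fluorescence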
* hit, by the source's call.

Compound | Calb biofilm kill
Cc1ccc(NCc2ccc(O)c3ncccc23)cc1 | 4
CN(C)/C=C/C(=O)c1ccc(S(=O)c2ccccc2)cc1 (stereo unspecified) | 8
COc1ccc(OC)c(NC(=O)C(C)Oc2ccc(Br)cc2)c1 (stereo unspecified) | -23
O=c1cc[nH]c2c(Cl)cccc12 | 14
CCn1cc(C(=O)O)c(=O)c2cc(F)c(N3CCNCC3)cc21 | 14
CCOC(=O)C(c1ccccc1)C(Nc1ccc(Cl)c(Cl)c1)c1ccccn1 (stereo unspecified) | 13
CN(C)c1cccc2cccc(N(C)C)c12 | 16
COc1ccc(NC(=O)Nc2nc3c(s2)CCCC3)cc1 | 9
COc1ccc2c(c1OC)CN1CCc3cc4c(cc3[C@@H]1[C@@H]2O)OCO4 | 17
O=C(N/N=C/c1ccc([N+](=O)[O-])o1)c1cn(-c2ccccc2)nc1-c1ccc(Cl)cc1 | 12
NNC(=O)c1ccc(CSc2n[nH]c(=O)[nH]c2=O)cc1 | 10
O=C(O)c1cc(-c2ccco2)nc2ccc(Br)cc12 | 6
c1ccc(Cc2noc(CN3CCN(CCOc4ccccc4)CC3)n2)cc1 | 13
COc1ccc(/C(N)=N/OC(=O)c2ccc([N+](=O)[O-])c(C)c2)cc1OC | 7
O=C(N/N=C/c1cc2c3c(c1O)CCCN3CCC2)c1ccccc1O | 16
COc1ccccc1/C=N/N1C(=O)c2cccc3cccc(c23)C1=O | 15
CC(C)(C)CC(=O)Nc1ccc(C(N)=O)cc1 | -3
CCOC(=O)c1c(NC(=O)COc2cccc3c2CCN(C)C3=O)sc2c1CCC2 | 13
Cc1ccc(C2C3=C(CCCC3=O)N=C3c4ccccc4C(=O)C32)cc1 (stereo unspecified) | 6
CCOC(=O)c1sc(NC(=O)CN2C(=O)NC3(CCCCCCC3)C2=O)c(C(=O)OCC)c1C | 1
C=CCN(C(=O)CNC(=O)c1ccco1)C(C(=O)NC1CCCCC1)c1ccc(OC)cc1 (stereo unspecified) | 12
CCOc1ccc2[nH]c(=O)c(CN(CCCN3CCOCC3)Cc3nnnn3Cc3ccc(OC)cc3)cc2c1 | 9
Cc1cn([C@H]2C[C@H](N=[N+]=[N-])[C@@H](CO)O2)c(=O)[nH]c1=O | 19
O=C(COC(=O)c1cc[n+]([O-])cc1)Nc1ccccc1Sc1ccccc1 | 12
CCOC(=O)CNC(=O)CN1C(=O)CC(c2ccccc2)S(=O)(=O)c2ccccc21 (stereo unspecified) | 13
CCOC(=O)C1(Cc2ccccc2)CCN(Cc2cnn(CC)c2)CC1 | 16
CC(C)Cn1ccc(=O)n(CC(C)C)c1=O | 2
CCOC(=O)c1sc(-c2ccc(OC)cc2)cc1NC(C)=O | -5
O=C(NCCCn1ccnc1)/C(=C/c1ccco1)NC(=O)c1cccs1 | 10
CC(=O)Nc1ccc2c(COC(=O)CC3Sc4ccccc4NC3=O)cc(=O)oc2c1 (stereo unspecified) | 12
Cc1ccc(C(=O)O/N=C(\N)Cc2ccc([N+](=O)[O-])cc2)c(Cl)c1 | 19
COc1cccc(-c2ccc(SCC(=O)NCCc3ccccc3)nn2)c1 | 16
CCN1CNC(=S)N(CCc2ccccc2)C1 | 5
OC(c1nc2ccccc2[nH]1)C(O)C(O)C(O)c1nc2ccccc2[nH]1 (stereo unspecified) | 2
CC1CN(C(=O)C2CC2)C(C)CN1C(=O)C1CC1 (stereo unspecified) | 12
O=C(c1ccc(S(=O)(=O)Cc2ccccc2F)c([N+](=O)[O-])c1)N1CCCCCC1 | 9
COc1ccc(C)cc1NC(=O)c1ccccc1NS(=O)(=O)c1cccc2cccnc12 | 13
C/C=C/Cn1cccc(C(=O)Nc2ccc(OC)cc2)c1=O | 11
Cc1nn(C)c(Cl)c1CN1CCN(CCC(C)C)C(CCO)C1 (stereo unspecified) | 20
Cc1ccc(CN2C(=O)N/C(=C/c3ccc(-c4ccc(C(=O)O)cc4)o3)C2=O)cc1 | 22
CC(C)Oc1ccc(CN=C(N)N=C(N)N)cc1Cl | 12
CCN1CCN(CC(=O)Nc2cc(C)c(C)cc2[N+](=O)[O-])CC1 | 11
OCCCNC(=S)NC1CCCC1 | 12
CCc1ccc(OCCCC(=O)NCc2ccccc2)cc1 | 8
CCCC(=O)NNC(=O)CCC(=O)Nc1ccccc1Cl | 5
Cc1ccc(NCc2nnc3n2CCCCC3)c(C)c1 | 5
COc1ccc(NC(=O)c2ccc(COCC(F)(F)F)cc2)cc1OC | -8
COc1ccccc1Oc1ccc2c(c1)C(=O)N(c1ccccc1)C2=O | 4
Cc1cc(C(=O)Cn2nc(C(=O)O)c3ccccc3c2=O)c(C)n1-c1ccccc1 | 11
CC(C)CN(CC(C)C)C(=O)Nc1cccc([N+](=O)[O-])c1 | -2
C=CCOc1ccc(/C=C2\SC(=S)N(C(C(=O)O)c3ccccc3)C2=O)cc1 (stereo unspecified) | 11
O=[N+]([O-])c1ccc(C2Nc3cccc4cccc(c34)N2)cc1 | 5
COc1cc(C(=O)Oc2ccccc2/C=N/NC(=O)c2ccc(C)c(Cl)c2)cc(OC)c1OC | 12
COCCn1c(-c2cccc([N+](=O)[O-])c2)nc2c1c(=O)[nH]c(=O)n2Cc1ccccc1 | 14
CCN(CC)S(=O)(=O)c1ccc2c(c1)N(CC(=O)NCc1ccccn1)C(=O)CO2 | 21
Cc1cc(C)cc(NC(=O)c2ccc(CNc3c(N4CCCC4)c(=O)c3=O)cc2)c1 | 11
CC(=O)NCCCC(=O)NN1C(=S)N(Cc2ccccc2)C(=O)C1CC(=O)Nc1cccc(C)c1 (stereo unspecified) | 11
O=c1c2ccccc2nc(CSc2nnnn2-c2ccccc2)n1-c1ccccc1Cl | 11
Cc1cccc(-n2c(-c3csc(C)c3C)n[nH]c2=S)c1 | 17
C/C=C(/C)C(=O)O[C@@H]1c2c(ccc3ccc(=O)oc23)O[C@@H]1C(C)(C)OC(=O)/C(C)=C\C | 18

Going on with the list.
Compound | Calb biofilm kill
COc1ccc(C(=O)NNC(=O)C(Cc2ccc(O)cc2)NC(=O)c2ccccc2NC(=O)c2ccc(OC)cc2)cc1 (stereo unspecified) | 10
Cc1ccc(C)c(NC(=O)CSc2nnc(CNC(=O)c3cccs3)o2)c1 | 17
CCOC(=O)C1CCN(C(=O)C2(NC(=O)NC3CCCCC3)CCCCC2)CC1 | -2
O=C(c1ccc([N+](=O)[O-])cc1)N1CCC(n2nnc3cc(F)ccc32)CC1 | 20
O=C(CN1C(=O)NC2(CCCCCC2)C1=O)NCc1cccs1 | 7
Cc1ccc(OCc2nnc(SCC(=O)c3ccccc3)n2-c2ccccc2)cc1 | 13
CCCOc1ccc(C(=O)CCC(=O)OCC(=O)Nc2ccc(OCC)cc2)cc1 | 11
COc1ccc(OC)c(C(C)NC(=O)Nc2ccccc2)c1 (stereo unspecified) | 17
CC(C)=CCC/C(C)=C/C(N)=O | 16
CCOC(=O)C1CCN(C(=O)c2cccnc2Oc2ccccc2)CC1 | 25
COc1cccc(CNC(=O)C2=Cc3cccc(OC)c3OC2)c1 | -7
C[C@@H]1CN(C(=O)c2nc3ccc(Cl)cn3c2CNCC[C@@H]2C[C@@H]3C=C[C@H]2C3)C[C@H](C)O1 | 12
CCOC(=O)c1cc(-c2ccccc2)n[nH]1 | 19
Cc1nc(NC(=O)/C=C/c2ccco2)sc1C | 16
Cc1ccc(N2C(=O)N(C(C)C)C(C)(C)CC2(C)O)cc1 (stereo unspecified) | 8
COC(=O)c1c(C)nsc1NC(=O)Oc1ccccc1 | 11
FC(F)(F)c1cccc(Cc2noc(CN3CCCCC3c3ccccn3)n2)c1 (stereo unspecified) | 21
COc1ccc(NC(=O)C23CC4CC(C2)CC(c2ccc(C)cc2)(C4)C3)cc1 | 4
Cc1cc(C)cc(N/C(N)=N/c2nc(C)cc(C)n2)c1 | 9
Cc1nn(-c2ccc(F)cc2)c(Cl)c1/C=C/C(=O)N1CCNC(=O)C1 | 13

Overlap with the part before: four entries, then new ones.
Compound | Calb biofilm kill
FC(F)(F)c1cccc(Cc2noc(CN3CCCCC3c3ccccn3)n2)c1 (stereo unspecified) | 21
COc1ccc(NC(=O)C23CC4CC(C2)CC(c2ccc(C)cc2)(C4)C3)cc1 | 4
Cc1cc(C)cc(N/C(N)=N/c2nc(C)cc(C)n2)c1 | 9
Cc1nn(-c2ccc(F)cc2)c(Cl)c1/C=C/C(=O)N1CCNC(=O)C1 | 13
O=C(COc1ccc2ccc(=O)oc2c1)OCc1ccccc1 | 13
Cc1ccc2nc(SCc3nc4ccccc4c(=O)[nH]3)[nH]c2c1 | 16
Cc1ccc(N2C(=O)CC(Sc3ncccc3C(=O)O)C2=O)cc1 (stereo unspecified) | 6
CC(C)C(=O)Nc1nnc(SCc2cccc(F)c2)s1 | 12
CN(Cc1ccon1)Cc1cn(C)nc1-c1ccc2c(c1)OCCO2 | 8
COc1cc(C(=O)OCc2ccc(C)cc2)cc(NC(=O)c2cccs2)c1OC | 5
CN(C)S(=O)(=O)c1ccc(NC=O)cc1 | 4
Cc1cc(C)n(CCNC(=O)CC2C(=O)NCCN2Cc2ccccc2C(F)(F)F)n1 (stereo unspecified) | 5
COc1ccc2c(c1)C(c1ccc(C)o1)=NNC(c1cccnc1)=N2 | 11
CCCC1(c2ccccc2)NC(=O)N(CC(=O)Nc2cc(S(=O)(=O)N3CCOCC3)ccc2Cl)C1=O (stereo unspecified) | 14
Cc1ccc2c(c1)COc1c3ccc(C(=O)NC(C)C)cc3nn1-2 | 14
Cc1ccccc1C(=O)NC1CCN(C(=O)N2CCOCC2)CC1 | 4
COc1ccc(Oc2nc(OC)cc(OC)n2)cc1 | 6
Cc1ccc(/C([O-])=C(/C(=S)NCc2ccccc2)[n+]2ccccc2)cc1[N+](=O)[O-] | 7
COC(=O)c1ccc(C)c(NC(=O)CCSc2ccc(C)cc2)c1 | 23
COC(=O)c1c(NC(=O)/C=C/c2ccco2)sc2c1CCC2 | 17
Cc1cccc(S(=O)(=O)Nc2ccc3c(c2)OCCO3)c1 | 8
Cc1ccc(C(=O)N(C)c2nnc(-c3ccncc3)s2)cc1 | 31
O=C(NC1CCCCC1)N1CCN(S(=O)(=O)c2ccc(F)cc2)CC1 | 7
O=C1N(Cc2cccc(Cl)c2)C[C@@H]2C[C@@H](c3ccco3)N3CCC[C@@]123 | 10

4 of the compounds above, as labelled records.
CC(C)C(=O)Nc1nnc(SCc2cccc(F)c2)s1
  Calb biofilm kill: 12

CN(Cc1ccon1)Cc1cn(C)nc1-c1ccc2c(c1)OCCO2
  Calb biofilm kill: 8

COc1cc(C(=O)OCc2ccc(C)cc2)cc(NC(=O)c2cccs2)c1OC
  Calb biofilm kill: 5

CN(C)S(=O)(=O)c1ccc(NC=O)cc1
  Calb biofilm kill: 4

Next records
Compound | Calb biofilm kill
O=C1OC(c2ccc(Cl)cc2)=N/C1=C\C=C\c1ccco1 | 14
O=C(CN(c1cccc([N+](=O)[O-])c1)S(=O)(=O)c1ccccc1)NCc1ccccc1 | 7
O=C(CCc1nnc(CCC2CCCCC2)o1)NCCc1cccnc1 | 16
C/C(=N\NC(=O)c1cccc(F)c1)c1cccc(NC(=O)c2ccc(F)cc2)c1 | 29
CCO[C@H]1OC(C(=O)Nc2ccccc2)=C[C@@H](c2coc3ccccc3c2=O)[C@@H]1CCCO | 13
COc1cc2ccccc2cc1C(=O)NC(=S)Nc1cccc(C(=O)O)c1 | 14
Cc1cccc2cc(C#N)c(SCC(=O)NCc3cccs3)nc12 | 6
NCCc1c(C(=O)O)[nH]c2ccc([N+](=O)[O-])cc12 | 22
NC(=S)N/N=C1\CC(n2nnn(-c3cccc(Cl)c3)c2=S)C2COC1O2 (stereo unspecified) | 17
Nc1c(C(=O)OCC(=O)Nc2ccc(Cl)cc2[N+](=O)[O-])[nH]c(=O)[nH]c1=O | 10
O=C(C1=C[C@H](c2csc3ccccc23)C[C@H](OCCCCO)O1)N1CCN(Cc2ccc3c(c2)OCO3)CC1 | 13
Cc1nc(N)sc1C(=O)NN | 6
COc1ccc(OCCCC(=O)Nc2cccc([N+](=O)[O-])c2)cc1 | 14
CCOc1ccc2oc(C(=O)NC3CC(C)(C)NC(C)(C)C3)c(C)c2c1 | 9
CC(O)CSc1nc2c(c(=O)[nH]c(=O)n2C)n1CC(O)COc1ccccc1 (stereo unspecified) | -5
Cc1cc2c(cc1C)C(c1ccsc1)CC(=O)N2 (stereo unspecified) | 10
COc1ccccc1NS(=O)(=O)c1cc(N)ccc1N1CCCCC1 | 4
O=C(NNC1CC(=O)N(c2ccccc2)C1=O)c1ccco1 (stereo unspecified) | 10
CC(=O)Oc1ccc(C(=O)Nc2ccccc2C(=O)NCC(C)C)cc1 | 15
Cc1cc(C)c(NC(=S)N(CCN(C)C)C(C)c2cccnc2)c(C)c1 (stereo unspecified) | 8
NC(=O)Cc1nc2scc(-c3ccccc3)c2c(=O)[nH]1 | -4
CCCn1c(SCC(=O)Nc2nnc(CC)s2)nnc1-c1ccncc1 | 16
O=C(/C=C/c1ccc(Br)cc1)c1ccc(NC(=O)c2ccco2)cc1 | 19
COc1ccc(C(=O)/C=C/c2ccc(OC)c(CN3CCOCC3)c2)cc1 | 8
CCC(C(=O)OCC(=O)Nc1c(Cl)cccc1Cl)c1ccccc1 (stereo unspecified) | 8
CN(Cc1ccccc1)C(=C(Cl)Cl)/C(=C1/NCCN1C)[N+](=O)[O-] | 12

Bioassay records (PubChem)

This is a subset. The share of hits here may be higher or lower than overall.
